Screening data from PubChem.
Cruzain inh Det: qHTS Assay for Promiscuous and Specific Inhibitors of Cruzain (with detergent). Cruzipain (Trypanosoma cruzi), P25779. purified cruzain, Z-FR-AMC fluorescence, 0.01% Triton. Potency, µM, without a hit: max response, negative = inhibition, actives largely listed as inhibitors. 200,000 tested, 0.43% active;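 note: plate controls were neutral wells for no effect and buffer without enzyme for full effect; nearly all actives have a fitted effect of over 40% in size; top concentration of the series not given in the record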
Target sequence (P25779 123-467 limits assumed): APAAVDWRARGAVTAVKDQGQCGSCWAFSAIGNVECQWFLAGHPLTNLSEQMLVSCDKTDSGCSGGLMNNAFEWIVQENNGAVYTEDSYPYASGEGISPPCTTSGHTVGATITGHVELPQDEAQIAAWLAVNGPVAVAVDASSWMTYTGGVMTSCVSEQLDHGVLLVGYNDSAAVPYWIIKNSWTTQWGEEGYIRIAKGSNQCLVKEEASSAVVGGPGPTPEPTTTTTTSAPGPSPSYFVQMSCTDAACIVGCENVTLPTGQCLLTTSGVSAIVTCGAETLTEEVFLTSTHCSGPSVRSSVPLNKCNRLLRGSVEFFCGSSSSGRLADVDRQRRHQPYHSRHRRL
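Sodium acetate buffer (100 mM, pH 5.5) containing 5 mM DTT and 0.01% Triton X-100 hosted 1.5 nM cruzain and test compound for 15 min at room temperature. Cleavage of 2 uM Z-FR-AMC was then tracked by fluorescence.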
StopGo reporter: High Throughput Screening for Foot and Mouth Disease Virus Antivirals | Potency, µM (doses to about 57.9 µM), inactives show at the top dose signal change, negative = less light | human cells with a luciferase reporter of 2A StopGo recoding; control for the full effect not named in the record | 410,000 tested, 1.2% active; active = well fitted falling curve with a large enough effect; inconclusive = small, poorly fitted or top-dose-only effect; inactive = no such curve, though single readings can be large or run the other way; tested in HEK293T cells; note: % is set by controls: 0 for no effect and ±100 for the full control effect; nearly all actives have a fitted effect of over 45% in size; luciferase light after 4 h
NS1 function inh: qHTS Assay for Inhibitors of Influenza NS1 Protein Function; 270,000 tested, 0.4% active; S. cerevisiae slowed by influenza A NS1, growth recovery by OD600; Potency, µM (highest dose often 46.1 µM), for the others: at the top dose activity, positive = more growth; active means well fitted rising curve with a large enough effect; inconclusive means small, poorly fitted or top-dose-only effect; inactive means no such curve, though single readings can be large or run the other way; note: nearly all actives have a fitted effect of over 50% in size
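OD600 was taken as the measure of yeast growth restored by compound in an NS1-expressing S. cerevisiae strain. Cells had been washed out of glucose medium and diluted 1:100 into galactose -URA medium, pH 6.0.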
Marburg entry inh: qHTS for inhibitors of binding or entry into cells for Marburg Virus; Marburg virus pseudotyped entry inhibition, cell reporter; control for the full effect not named in the record; about a third of the inactives were read at about 46 µM; AID 540276, 2011; Potency, µM (top dose mostly 37.8 µM), without a hit: at the highest dose activity change, negative = inhibition, hits mostly inhibitors; 300,000 tested, 1.8% active; active = well fitted inhibition curve with a large enough effect; inconclusive = small, poorly fitted or top-dose-only effect, or effect the other way; inactive = flat fitted curve, though single readings scatter; tested in HEK293 cells; about a fifth of its hits are not listed in these tables; note: % is set by controls: 0 for no effect and ±100 for the full control effect; luciferase read-out
Cruzain noTriton: qHTS Assay for Promiscuous and Specific Inhibitors of Cruzain (without detergent); purified cruzain, Z-FR-AMC fluorescence, no detergent; Potency, µM, inactives show max response, negative = inhibition, usual class: inhibitors; 200,000 tested, 2.3% active;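 note: plate controls were enzyme without inhibitor for no effect and buffer without enzyme for full effect; nearly all actives have a fitted effect of over 40% in size; top concentration of the series not given in the record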
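Detergent-free condition (0.00005% Triton X-100) in acetate buffer pH 5.5 with DTT. 1.5 nM enzyme and compound were pre-mixed 15 min, then 2 uM Z-FR-AMC substrate added; reaction progress from fluorescence change between first and third reads (60 s).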
RE007 growth inh: qHTS Assay for Inhibitors of the HIV-1 protein Vpr; 360,000 tested, 0.21% active; Potency, µM (series often up to 92.2 µM), without a hit: at the highest dose activity change, negative = less growth; S. pombe RE007 Vpr strain, BacTiter-Glo ATP luminescence, 24 h; control for the full effect not named in the record; active = well fitted falling curve with a large enough effect; inconclusive = small, poorly fitted or top-dose-only effect; inactive = no such curve, though single readings can be large or run the other way;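 note: % is set by controls: 0 for no effect and ±100 for the full control effect; nearly all actives have a fitted effect of over 50% in size; the assay follows cell death caused by Vpr and the record does not say whether a fall means rescue or toxicity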
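Fission yeast strain RE007, carrying one chromosomally integrated HIV-1 vpr copy, was seeded at OD 0.01 in PMG+AL medium with 23 nL pinned compound. After 24 h at 30 °C and 99% humidity, viability was read by BacTiter-Glo luminescence.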
LASV entry inh: qHTS for Inhibitors of binding or entry into cells for Lassa Virus | Lassa virus pseudotype entry inhibition, cell reporter; control for the full effect not named in the record | Potency, µM (series often up to 37.9 µM), for inactives: at the top dose activity change, negative = inhibition, hits mostly inhibitors | 300,000 tested, 1.2% active | AID 540256, 2011; active means well fitted inhibition curve with a large enough effect; inconclusive means small, poorly fitted or top-dose-only effect, or effect the other way; inactive means flat fitted curve, though single readings scatter; tested in HEK293 cells; note: % is set by controls: 0 for no effect and ±100 for the full control effect; nearly all actives have a fitted effect of over 50% in size; luciferase read-out
SARS PLP yeast: qHTS of Yeast-based Assay for SARS-CoV PLP. S. cerevisiae expressing SARS-CoV PLpro, growth rescue; control for the full effect not named in the record. 330,000 tested, 0.19% active. Potency, µM (doses to about 32.9 µM), inactives show at the highest dose activity, positive = growth rescue; active means well fitted rising curve with a large enough effect; inconclusive means small, poorly fitted or top-dose-only effect; inactive means no such curve, though single readings can be large or run the other way; note: 0% is about no effect; nearly all actives have a fitted effect of over 55% in size; growth read by luminescence after 48 h
Active calls of the source: *; ? = inconclusive; . = no result given; & = joins results of further samples; [ ] = another dose, or the depositor's remark. Unless noted, calls come from the whole dose curve; as a rule, active = well fitted curve in the direction sought with a large enough effect; inconclusive = small, poorly fitted or top-dose-only effect, or another doubt; inactive = no such curve, though single readings can be large; an effect the other way counts as inactive or inconclusive. Potency is the fitted concentration of half-maximal effect.

Fields: Cruzain inh Det, StopGo reporter, NS1 function inh, Marburg entry inh, Cruzain noTriton, RE007 growth inh, LASV entry inh, SARS PLP yeast
CS(=O)(=O)N(CCc1ccccc1)CC(=O)N1CCN(Cc2ccccc2)CC1
→ 1.8%, ?, -3%, -30%[46.1 µM], 9%, -23%, ?, 5%
Cc1ccc2nc(N3C(=O)C(O)=C(C(=O)c4ccco4)C3c3cccs3)sc2c1 (stereo unspecified)
→ ?, 70%[activator], -45%, ?, ?, -6%, ?, -17%
CCC(C)(C(=O)NC1CCCC1)N(CC1CCCO1)C(=O)c1ccc2c(c1)OCO2 (stereo unspecified)
→ 0.7%, 5%, -1%, -6%, 8%, -4%, 18%, 2%
O=C(NCc1ccc(Cl)cc1)c1ccc2c(c1)nnn2C1CCCC1
→ -1.2%, -14%, ., ., -10%, ., 1%[46.1 µM], .
Cn1cccc1C(=O)NC(=O)COC(=O)c1cc([N+](=O)[O-])ccc1Cl
→ ., ?, ., -27%[46.1 µM], ., 1%, ?, -4%
O=C(CCNS(=O)(=O)c1cccc2nonc12)NC1CCCCC1
→ ., 3%, ., -5%[46.1 µM], ., -5%, 8%[46.1 µM], 4%
C=CCNC(=O)/C=C/c1c(F)cccc1Cl
→ -1.0%, 44%[activator], -18%, ?, 1%, -4%, 9%, -10%
COc1ccc(C(c2c(O)cc(C)n(Cc3ccco3)c2=O)N2CCN(c3ccccc3)CC2)cc1 (stereo unspecified)
→ 0.8%, ?, ., ., ?, ., -7%[46.1 µM], .
Cc1cccc2sc(NC(=O)C3CC3)nc12
→ ., 37%[activator], -18%, ?, ., -16%, 11%, .
CCOc1ccc(N2C(=O)/C(=C/c3cccs3)N(CC(=O)OC)C2=S)cc1
→ -2.4%, -8%, -3%, ?, 2%, -5%, -8%, 1%
COc1ccc(CCN2C(=NC(=O)CC(C)C)SC3CS(=O)(=O)CC32)cc1OC (stereo unspecified)
→ ., -1%, 10%, ., ., 4%, ., 3%
COc1ccc(-c2cc(=O)oc3cc(OC(=O)C4CCCCC4)c(Cl)cc23)cc1
→ -5.3%, -23%, 27%, -12%, 6.3µM*, -5%, 4%, -22%
CCc1ccccc1NC(=S)N1CCN(c2cccc(OC)c2)CC1
→ ., -14%, 5%, -7%, ., 6%, -26%, 2%
Cc1cccc(Nc2nc3c(s2)CCCC3)c1
→ -13%, -24%, 14%, ?, -28%, 25µM*, ?, -24%
O=C(COC(=O)C1CC(=O)N(Cc2ccccc2)C1)Nc1ccc(Cl)cc1F (stereo unspecified)
→ ., 25%, ., -20%[46.1 µM], ., -6%, 5%[46.1 µM], 0%
COc1ccccc1/C=N/OC(=O)c1ccc(F)cc1
→ ., 13%, 3%, 0%, ., 60%, 27%, -4%
CC(C(=O)Nc1ccc(O)cc1C(=O)O)N1C(=O)/C(=C\c2cccs2)SC1=S (stereo unspecified)
→ ., -20%, 17%, ., ., -5%, ., ?
CCOc1cc(Br)c(CC(=O)NC2CCCCCC2)cc1OCC
→ ., -18%, -4%, -11%[46.1 µM], ., -12%, 3%[46.1 µM], 2%
O=C(NCC1CC1)[C@@H]1C[C@H]1[C@@H](NP(=O)(c1ccccc1)c1ccccc1)c1ccccc1
→ -0.5%&0.9%, 18%, -12%, 4%, -3%&1%, 3%, ?, -11%
CN1C(=O)c2ccc(NC(=O)CCS(=O)(=O)c3ccccc3)cc2C1=O
→ ., 30%[activator], ., -7%[46.1 µM], ., 6%, -1%, -4%
COC(=O)c1cc(NC(=O)[C@H](CCS(C)(=O)=O)N2Cc3ccccc3C2=O)cc(C(=O)OC)c1
→ -0.8%, 22%, ., 1%[46.1 µM], ?, ., 1%[46.1 µM], .
Oc1cc2c(cc1CN1CCN(c3ccccc3)CC1)CCC2
→ -11%, 3%, -4%, -29%, -7%, 5%, 12%, 2%
O=C(/C=C/NNC(=O)c1ccccc1O)c1ccccc1
→ ., 9%, 10%, 4%[46.1 µM], ., 7%, ?, 0%
CCCC(=O)Nc1cc(S(=O)(=O)N(CC)CC)ccc1Cl
→ -5.9%, -18%, 2%, ?, -16%, 17%, 17%, -18%
C=CCNC(=O)c1ccc2c(=O)n(CCCN3CCCC3=O)c(=S)[nH]c2c1
→ ., -15%, ., 29%[46.1 µM], ., -5%, -3%, 2%
CC(C)=C1C2CCC1C(C(=O)Nc1cc(C)cc(C)c1)C2C(=O)O (stereo unspecified)
→ ., -5%, -1%, 18%[46.1 µM], ., 15%, 3%[46.1 µM], -1%
COc1ccc(-c2nnc(SCC(=O)Nc3ccc(C(=O)O)cc3)n2-c2ccc(Cl)cc2)cc1
→ ., -12%, 11%, -5%[46.1 µM], ., 4%, 10%[46.1 µM], 0%
COC(=O)c1c(NC(=O)c2cccnc2Cl)sc(C(=O)N(C)C)c1C
→ -6.0%, -8%, -6%, -22%, -4%, -5%, 5%, 7%
COc1cc(C2C(C(=O)OC(C)C)=C(C)Nc3ncnn32)cc(OC)c1OC (stereo unspecified)
→ -0.5%, -16%, -13%, ., -14%, 5%, ., 13%
CC(C)C(NC(=O)c1ccc(C(C)(C)C)cc1)C(=O)NCC1(N(C)C)CCCCC1 (stereo unspecified)
→ ., -4%, 3%, ?, ., 4%, ?, -8%

At a glance, part of the list above.
Fields: Cruzain inh Det, StopGo reporter, NS1 function inh, Marburg entry inh, Cruzain noTriton, RE007 growth inh, LASV entry inh, SARS PLP yeast
C=CCNC(=O)c1ccc2c(=O)n(CCCN3CCCC3=O)c(=S)[nH]c2c1
→ ., -15%, ., 29%[46.1 µM], ., -5%, -3%, 2%
CC(C)=C1C2CCC1C(C(=O)Nc1cc(C)cc(C)c1)C2C(=O)O (stereo unspecified)
→ ., -5%, -1%, 18%[46.1 µM], ., 15%, 3%[46.1 µM], -1%
COc1ccc(-c2nnc(SCC(=O)Nc3ccc(C(=O)O)cc3)n2-c2ccc(Cl)cc2)cc1
→ ., -12%, 11%, -5%[46.1 µM], ., 4%, 10%[46.1 µM], 0%
COC(=O)c1c(NC(=O)c2cccnc2Cl)sc(C(=O)N(C)C)c1C
→ -6.0%, -8%, -6%, -22%, -4%, -5%, 5%, 7%
COc1cc(C2C(C(=O)OC(C)C)=C(C)Nc3ncnn32)cc(OC)c1OC (stereo unspecified)
→ -0.5%, -16%, -13%, ., -14%, 5%, ., 13%
CC(C)C(NC(=O)c1ccc(C(C)(C)C)cc1)C(=O)NCC1(N(C)C)CCCCC1 (stereo unspecified)
→ ., -4%, 3%, ?, ., 4%, ?, -8%

Next section
Fields: Cruzain inh Det, StopGo reporter, NS1 function inh, Marburg entry inh, Cruzain noTriton, RE007 growth inh, LASV entry inh, SARS PLP yeast
COCCn1c(SCC(=O)Nc2ccc3c(c2)OCCO3)nnc1-c1ccncc1
→ ., -3%, ., 15%, ., 5%, 8%, -27%
CC1(C)CC(=O)C2=C(C1)OC1=C(C(=O)CC(C)(C)C1)C2(C)C
→ -0.7%, ., 5%, -4%, -10%, ., -4%, 3%
CC(=O)/C=C1\SC(CC(=O)O)C(=O)N1c1ccccc1 (stereo unspecified)
→ 1.6%, ., -2%, 1%, 4%, -5%, 8%, -4%
CC(=O)C(Sc1nc(N(C)C)nc(N(C)C)n1)C(=O)Nc1ccccc1 (stereo unspecified)
→ ., -10%, -1%, -1%[46.1 µM], ., 3%, 1%, -1%
Cc1cc(C)c(S(=O)(=O)N2CCCCC2)cc1N(C)S(=O)(=O)c1ccc(Cl)cc1
→ 2.6%, -14%, ?, ?, -5%, -13%, ?, -3%
Cc1ccc(CCNc2ncnc(Cl)c2N)cc1
→ ., 0%, ., ?, ., 18%, -21%[46.1 µM], .
Cn1c(=O)[nH]c(=O)c2c1nc(Br)n2CC(O)c1ccccc1 (stereo unspecified)
→ 3.9%, -28%, 14%, 0%, -4%, 24%, 8%, 8%
CN(c1ccccc1)c1nc(-n2ccnc2)nc(-n2ccnc2)n1
→ 1.7%, -26%, -105%, 1%, -1%, -4%, -2%, -10%
COc1cccc(N2CN(CCc3ccccc3)CNC2=S)c1
→ ., -16%, 0%, -7%[14.2 µM], ., 19%, -24%, 0%
C/C(=N/NC(=O)CN(c1ccccc1)S(=O)(=O)c1ccccc1)c1ccccc1O
→ ., 17%, -7%, ., ., 3%, ., 5%
COc1ccc(-n2c(C)cc(/C=C3\SC(=O)NC3=O)c2C)cc1
→ ., 80%[activator], -3%, ?, ., 67%, 18%, -1%
C=CCN1C(=O)c2ccc(C(=O)N(CC(C)C)c3c(N)n(CCCC)c(=O)[nH]c3=O)cc2C1=O
→ ., 4%, ., -7%[46.1 µM], ., -9%, -13%, 0%
CCOc1ccc(NS(=O)(=O)c2ccc3c(c2)NC(=O)CCS3)cc1
→ -4.4%, 0%, ., ., -3%, ., ?, .
C=CCn1c(N)cc(=O)nc1SCC(=O)Nc1ccc(C)cc1
→ ., -3%, ., ?, ., -10%, -10%, -2%
S=c1[nH]nc(C2CCCCC2)n1/N=C/c1ccccn1
→ ., -22%, 8%, ., ., 0%, ., 0%
C#CCNC(=O)C1=C[C@H](C)[C@@H](CCCO)[C@H](OCC)O1
→ ., 0%, 2%, ., ., 0%, ., -1%
C=CCOc1ccc(C2=NOC(C(=O)Nc3ccc4c(c3)OCCO4)C2)cc1 (stereo unspecified)
→ ., -10%, -14%, ., ., -5%, ., -3%
COc1ccc(-n2c(Cn3c(=O)sc4ccccc43)nnc2SC)cc1
→ -1.6%, -7%, -17%, ., -9%, -1%, ., 4%
CN(C)CCNC(=O)Cn1c(=O)c2cccn2c2ccc(F)cc21
→ 5.1%, -21%&-9%, 3%, ., 36%, -1%, 23%[46.1 µM], 2%
CN(CC(=O)Nc1ccc(F)cc1)C(=O)CN1C(=O)c2ccccc2C1=O
→ ., -3%, ., 11%, ., -2%, 28%, -2%
COc1cccc(NC(=S)N(Cc2ccccn2)Cc2ccccc2Cl)c1
→ ., 23%, 12%, ?, ., 8%, ?, 6%
